Source: PubChem
KCNQ2 block: KCNQ2 channel blockers in CHO-K1 cells – cell-based, FluxOR thallium flux, B-score, primary screen (AID 2156) | 20 min; hits give low values; only compounds with negative scores are shown here; some inactives read as strong as hits | B-score at 10 µM | 1.1% of 310,000 active;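 active = fluorescence ratio B-score at most minus 3 library SDs, with starting brightness B-score within 2 library SDs, cut at about -5.5 in these data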
Target sequence (O88943 whole entry, looked up): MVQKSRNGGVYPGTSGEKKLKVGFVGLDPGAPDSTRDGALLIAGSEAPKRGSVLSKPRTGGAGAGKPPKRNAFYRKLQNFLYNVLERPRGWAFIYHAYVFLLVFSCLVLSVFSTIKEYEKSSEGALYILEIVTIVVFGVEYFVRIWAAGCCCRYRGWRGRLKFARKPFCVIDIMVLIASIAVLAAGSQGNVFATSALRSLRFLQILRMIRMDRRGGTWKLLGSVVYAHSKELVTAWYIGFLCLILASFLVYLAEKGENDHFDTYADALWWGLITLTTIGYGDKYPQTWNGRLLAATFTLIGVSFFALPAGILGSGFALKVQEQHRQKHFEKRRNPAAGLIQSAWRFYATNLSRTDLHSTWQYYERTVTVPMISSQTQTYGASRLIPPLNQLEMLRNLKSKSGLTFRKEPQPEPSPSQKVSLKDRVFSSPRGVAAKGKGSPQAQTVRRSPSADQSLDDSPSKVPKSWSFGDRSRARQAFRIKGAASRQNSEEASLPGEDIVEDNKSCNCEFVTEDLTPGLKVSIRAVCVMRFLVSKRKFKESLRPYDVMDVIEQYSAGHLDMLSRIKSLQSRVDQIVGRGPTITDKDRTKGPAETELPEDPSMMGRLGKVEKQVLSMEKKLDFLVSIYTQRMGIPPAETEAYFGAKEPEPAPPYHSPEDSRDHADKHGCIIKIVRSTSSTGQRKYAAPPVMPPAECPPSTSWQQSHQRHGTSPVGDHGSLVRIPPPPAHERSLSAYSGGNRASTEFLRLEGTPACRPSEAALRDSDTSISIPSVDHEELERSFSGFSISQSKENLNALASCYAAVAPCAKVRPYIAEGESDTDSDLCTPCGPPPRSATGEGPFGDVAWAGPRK
KCNQ2 block baseline: second read-out of KCNQ2 block, no call of its own (marks repeat the call); B-score; measured here: initial fluorescence intensity artifact check;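 brightness before thallium and not channel activity; 0 = typical well and far values either way flag optical interference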
The depositor's hits bear a star; i = inactive.

Compound,KCNQ2 block,KCNQ2 block baseline
CCc1c(C)c(C#N)c2nc3ccccc3n2c1NCC1CCCO1 (stereo not given),i,-0.37
CCc1ccc(NC(=O)CSc2nc3c(c(=O)n(C)c(=O)n3C)n2C)cc1,i,0.11
CCN(CC(=O)Nc1c(F)cccc1F)C(=O)c1ccc(N2C(=O)c3ccccc3C2=O)cc1,i,1.9
CS(=O)(=O)N1CCN(c2ccccc2NC(=O)c2ccc(-c3ccc(Cl)cc3Cl)o2)CC1,i,-0.52
CC(C)C(=O)N1CCC(n2nccc2NC(=O)CCOc2ccccc2)CC1,i,-0.02
COc1cccc(NC(=O)N[C@@H](Cc2ccccc2)C(=O)O)c1,i,-2.2
N/C(=N\NC(=O)c1cccc(F)c1)c1cc2ccccc2oc1=O,i,0.1
Fc1cccc(Nc2nc3ccccc3n3nnnc23)c1,i,0.95
COc1ccccc1-n1cnc2c(c1=O)c1nc3ccccc3nc1n2-c1ccc(C)c(C)c1,i,-0.34
Cc1ccc(C(=O)Nc2c(C(=O)N3CCOCC3)cnn2-c2ccccc2)cc1,i,0.11
C=CCn1c(-c2ccccc2)ccc(C#N)c1=O,i,-0.85
CN(c1ccccc1)c1ccc(/C=c2\s/c(=C(/C#N)C(=O)C(C)(C)C)n(Cc3ccco3)c2=O)cc1,i,17
Cc1cc(C)n(C(=O)c2sc3cc(F)ccc3c2Cl)n1,i,1.2
O=c1nc(N2CCCC2)nc(N2CCCC2)[nH]1,i,0.56
Cc1ncc(CN2CCN(CCC(C)C)C(CCO)C2)s1 (stereo not given),i,0.37
COc1ccc(OC)c(/C=N\NC(=O)CC(=O)NCCc2ccccc2)c1,i,4.3
COc1ccc2c(c1)Cc1sc(NC(=O)c3cccnc3)nc1-2,i,0.81
COc1ccc(C(C(=O)NC2CCCC2)N(C(=O)c2snc(-c3ccc(F)cc3)c2N)c2ccc(F)cc2)cc1 (stereo not given),i,-0.72
COc1cccc(CNC(=S)Nc2cccc(Cl)c2C)c1,i,-1.7
CCN(CC)c1ccc2cc(C(C)=O)c(=O)oc2c1,i,33

Whole records, quoted from the list. Order of screens: KCNQ2 block, KCNQ2 block baseline
Listed for Cc1cc(C)n(C(=O)c2sc3cc(F)ccc3c2Cl)n1 = i, 1.2
Listed for COc1ccc(OC)c(/C=N\NC(=O)CC(=O)NCCc2ccccc2)c1 = i, 4.3

The listing continues:
Compound,KCNQ2 block,KCNQ2 block baseline
COc1cccc(Oc2coc3c(CN4CCOCC4)c(O)ccc3c2=O)c1,i,-0.04
CCC(=O)Nc1ccc(N2CCOCC2)c(S(=O)(=O)Nc2ccc(OC)cc2)c1,i,0.8
CCOc1cc(/C=C(/C#N)C(=O)Nc2ccc(OC)cc2)ccc1OCc1ccc(C(=O)O)cc1,i,1.6
COc1ccc(C(=O)Nc2nc3ccccc3s2)c(OC)c1,i,-0.46
COC(=O)c1cc(S(=O)(=O)N(C)C2CCCCC2)cn1C,i,0.76
COC(=O)CN1C(=O)C(O)(CC(=O)c2ccc(C)cc2)c2cc(Br)ccc21 (stereo not given),i,-1.3
COCCNC(C)C(=O)Nc1ccc(Br)cc1 (stereo not given),i,2.4
COc1ccc(NC(=O)CN(c2ccccc2)S(=O)(=O)c2ccccc2)c(OC)c1,i,0.1
COc1ccc(N2C(=O)C3C(C2=O)C3(c2ccccc2)c2ccccc2)cc1 (stereo not given),i,1.2
Cc1ncc(CN2CCC(C(=O)Nc3cccc(-c4cscn4)c3)CC2)cn1,i,-2.4
Cc1ccc(-c2cc(-c3ccc(C)o3)nc(N)c2C#N)cc1,i,-0.02
Cc1ccccc1CSc1nnc(NC(=O)C2COc3ccccc3O2)s1 (stereo not given),i,-0.99
COc1cccc(CNC(=O)CCn2ccc3cc(S(=O)(=O)N4CCC(C)CC4)ccc32)c1,i,0.2
CC(NC(=O)COc1ccc(/C=N/NC(=O)CO)cc1)c1ccccc1 (stereo not given),i,3
Cc1ccc(C)c(S(=O)(=O)Nc2ccc(C(=O)NCC(c3ccco3)N3CCCCC3)cc2)c1 (stereo not given),i,-0.42
COc1cc(/C=N/NC(=O)C2=NNC(=O)C2C)ccc1O (stereo not given),i,0.94
COc1cccc(NC(=O)Cc2nc(-c3ccccc3)sc2-c2ccc(C)cc2)c1,i,0.21
O=C(Nc1ccccc1C(=O)NC(Cc1ccccc1)C(=O)NC1CCCCC1)c1ccccc1 (stereo not given),-7.2*,-1.8*
Cc1ccc(OCc2cc(C(=O)NCCn3cccn3)no2)cc1C,i,-0.83
COc1ccc(-c2nc(CS(=O)CC(=O)NCC3CCCO3)c(C)o2)cc1 (stereo not given),i,1.1
CCOC(=O)c1cnc(Nc2nc3ccccc3o2)nc1C,i,-2.3
O=C(Nc1cccc(Cl)c1)Nc1nc(-c2ccccc2)cs1,i,0.06
CCOC(=O)C(=O)Nc1nc(-c2ccccc2)c(CC)s1,i,2.6
Cc1ccc(C(=O)NCC2CCCN2S(=O)(=O)c2cccs2)cc1C (stereo not given),i,-0.92
Cc1ccc(Cn2c(CN3CCOCC3)nc3c2c(=O)[nH]c(=O)n3C)cc1,i,-0.21
Cc1cccc(C)c1NC(=O)CNC(=O)C1CC(=O)N(Cc2ccccc2)C1 (stereo not given),i,2
CCOC(=O)N1CCN(Cc2nc3cc(NC(C)=O)ccc3n2C)CC1,i,-0.36
CCOc1ccccc1NC(=O)Nc1ccsc1C(=O)OC,i,-0.63
CN(CCC1CCOCC1)C(=O)CC1C(=O)NCCN1Cc1c(F)cccc1Cl (stereo not given),i,0.5
CC(C)Nc1nc(NC(C)C)nc(Oc2ccc(=O)n(C)n2)n1,i,-0.39
Cc1ccccc1OCC(O)CNC1CCC(NCC(O)COc2ccccc2C)CC1 (stereo not given),-7.7*,0.05*
COc1cc2ccccc2cc1C(=O)NC(=S)Nc1ccc(C(=O)O)cc1,i,0.42
CCCCC1C2=C(CC(C)(C)CC2=O)OC2=C1C(=O)CC(C)(C)C2,i,0.97
COc1ccc(Br)cc1CNC(=O)C1CCCN(c2nc3ccccc3o2)C1 (stereo not given),i,-1.2
Cc1cccc(-n2c(SCC(=O)O)nc3sc4c(c3c2=O)CCCC4)c1,i,0.37
CO/N=C/CC(=O)Nc1ccc(F)cc1F,i,1.3
CC(=O)Cc1nsc(NC(=O)c2csc3c2CCCC3)n1,i,-0.23
Cc1ccc(S(=O)(=O)N(C)C)cc1NC(=O)COC(=O)c1c(C)noc1C,i,-3.2
Cc1cc(C)nc(NC(=O)NS(=O)(=O)N2CCCCCC2)n1,i,-0.38
Cc1ccc(S(=O)(=O)c2nc(S(=O)(=O)c3ccc(C)cc3)c(NCc3ccco3)s2)cc1,i,-0.39
O=S(=O)(c1ccc(F)cc1)N1CCN(c2ccc(F)cc2)CC1,i,0.03
COc1ccc(C(=O)/C=C/Nc2c(C)n(C)n(-c3ccccc3)c2=O)cc1OC,i,-0.93
Cc1ccnc(NS(=O)(=O)c2ccc(NC(=O)c3cc(=O)c4ccccc4o3)cc2)n1,i,-3.1
CCOc1ccc(N(CC(=O)Nc2ccc(C)c(F)c2)C2=NC3CS(=O)(=O)CC3S2)cc1 (stereo not given),i,-1.3
C#CCOc1ccc2ccccc2c1/C=C(/C#N)c1ccc(C(=O)O)cc1,i,-3
O=C(CSc1nnc(-c2ccco2)n1-c1ccccc1)NCCc1ccccc1,i,1.2
Nc1c(C(=O)NCc2ccccc2)sc2nc(N3CCOCC3)c3c(c12)CCCC3,i,0.39
COc1ccc(N2C(N)=C(C#N)C(c3cccnc3)C3=C2CC(C)(C)CC3=O)cc1 (stereo not given),i,1.3
CC(C)C1Oc2ccccc2C(=O)N(CC(=O)c2ccc3c(c2)OCCO3)C1=O (stereo not given),i,0.02
Cn1ncc(Cl)c1C(=O)NCc1cc(C(C)(C)C)n[nH]1,i,2.5

Further compounds follow.
Compound,KCNQ2 block,KCNQ2 block baseline
CCCn1c(=N)n(CCOc2ccc(OC)cc2)c2ccccc21,i,2.1
CN(c1ccc(C(=O)NCc2ccccn2)cc1)S(C)(=O)=O,i,0.06
CC(C)C(=O)n1nc(-c2cccnc2)nc1NCc1cccs1,i,0.09
COc1cc2c(cc1OC)-c1cc(OCCN3CCOCC3)nc(=O)n1CC2,i,0.23
CCC1OC2(C)OC(=N)C1(C#N)C(C#N)(C#N)C2c1ccccc1 (stereo not given),i,-0.23
COc1ccc(CC(=O)OCN2C(=O)c3ccccc3C2=O)cc1,i,-0.18
COc1cc(C(=O)OCC(=O)NC(N)=O)cc(CN2C(=O)c3ccccc3C2=O)c1OC,i,0.89
O=C(CCSc1nc(-c2ccco2)cc(C(F)(F)F)n1)NCc1cccs1,i,0.65
CC(C)c1cc(C(=O)O)on1,i,2
O=C(CSc1ccc([N+](=O)[O-])cn1)Nc1ccc2[nH]c(=O)[nH]c2c1,i,-1.1
CCN(CC)c1cc(CS(=O)c2ccccc2)nc(-c2ccccc2)n1 (stereo not given),i,0.2
O=C(Cn1ccc2ccccc21)Nc1ccc2c(c1)OCO2,i,-1.6
Nc1ccc(C(=O)N/N=C/c2cn(Cc3ccccc3F)c3ccccc23)cc1,i,1.2
CC1=C(C#N)CCC(=O)N1Cc1ccc(C)cc1,i,-0.28
O=C(O)c1ccccc1C(=O)NCC(O)COCC1CC=CCC1 (stereo not given),i,1.4
Cc1nc2ccc(NS(=O)(=O)c3ccc(C)c(C)c3)cc2s1,i,0.17
O=C(NC(c1ccccc1)c1ccccc1)c1ccc(CO)cc1,i,1.1
CC(=O)NC1CC2CCCC(C1)N2S(=O)(=O)c1ccccc1 (stereo not given),i,0.06
COc1ccc(NC(=O)N2CCC(C(=O)c3ccc4c(c3)OCCO4)CC2)cc1,i,0.1
CCN1CCN(CCCN(Cc2ccco2)C(=S)Nc2ccccc2Cl)CC1,i,-1.6
CC1CC2(C)Oc3ccccc3CC2C(C)C1CNCCCN(C)C (stereo not given),i,-0.02
CC(C)N1CCC(N2CCN(Cc3cccnc3)CC2CCO)CC1 (stereo not given),i,0.03
COc1ccc2[nH]cc(C(=O)CCl)c2c1,i,0.95
CC(=O)NC(=S)Nc1ccc(NC(=S)NC(=O)/C=C/c2ccco2)cc1,i,-0.8
CCOC(=O)N1CCN(C2CCCN(C(=O)c3ccccc3SC)C2)CC1 (stereo not given),i,-0.15
COc1ccc(S(=O)(=O)N2CCCC2)c(Cl)c1Cl,i,-0.57
N#Cc1ccc(CSc2nnc(-c3cccs3)n2-c2ccccc2)cc1,i,-0.01
COCCNC(=O)c1cc2nc(-c3ccc(F)cc3)cc(C(F)(F)F)n2n1,i,-0.07
CCOC(=O)CSc1nc2ccccc2c(=O)n1CC1CCC(C(=O)NCc2ccco2)CC1 (stereo not given),i,-0.04
CCN(c1cccc(C)c1)S(=O)(=O)c1cn(CC(=O)OC)c2ccc([N+](=O)[O-])cc12,i,-0.04

Six compounds already listed, arranged by molar mass, falling.
Compound,KCNQ2 block,KCNQ2 block baseline
CCOC(=O)CSc1nc2ccccc2c(=O)n1CC1CCC(C(=O)NCc2ccco2)CC1 (stereo not given),i,-0.04
CCN(c1cccc(C)c1)S(=O)(=O)c1cn(CC(=O)OC)c2ccc([N+](=O)[O-])cc12,i,-0.04
CC(=O)NC(=S)Nc1ccc(NC(=S)NC(=O)/C=C/c2ccco2)cc1,i,-0.8
COCCNC(=O)c1cc2nc(-c3ccc(F)cc3)cc(C(F)(F)F)n2n1,i,-0.07
COc1ccc(S(=O)(=O)N2CCCC2)c(Cl)c1Cl,i,-0.57
COc1ccc2[nH]cc(C(=O)CCl)c2c1,i,0.95

The listing continues:
Compound,KCNQ2 block,KCNQ2 block baseline
COc1cc(/C=C/C(=O)Nc2nnc(CC(C)C)s2)cc(OC)c1OC,i,1.6
Cc1cc(OCc2ccc(C(=O)NN=C3CCCC3)cc2)ccc1Cl,i,1.8
CC(C)(C)c1cc(NC(=O)c2c(F)cccc2Cl)n(-c2ccccc2)n1,i,-1.7
COc1ccc(N/C(=N\c2nc(C)cc(C)n2)NC(C)=O)cc1OC,i,-1.9
COC(=O)c1ccc(SCC(=O)N2CCC(C)CC2)c([N+](=O)[O-])c1,i,-0.91
CC(C)C(NC(=O)c1ccccc1)C(=O)N/N=C\c1ccco1 (stereo not given),i,0.94
CNS(=O)(=O)c1cccc(C(=O)OCC(=O)C23CC4CC(CC(C4)C2)C3)c1,i,1.4
O=C(CSc1n[nH]c(-c2ccccc2O)n1)N1CCOCC1,i,1.3
CC1=C(C(=O)OCCBr)C(c2cccc3ccccc23)NC(=O)N1 (stereo not given),i,-0.07
CCOC(=O)c1c(CSc2ccccc2)n(C)c2cc(Br)c(O)c(CN(C)C)c12,i,-1.3
Oc1cc(O)cc(-c2cc3ccc(O)cc3o2)c1,i,-0.09
Nn1c(SCc2ccccc2F)nnc1-c1cccnc1,i,3
COc1cccc(/C=C2\CCC(C3CCCC3)C2=O)c1 (stereo not given),i,-0.78
O=S1(=O)c2ccccc2C(CCO)N1Cc1ccccc1 (stereo not given),i,2.1
CN(C)c1ccc(/C=N/N2C(=S)SC(C)(C)C2N(O)C(=O)Nc2ccc([N+](=O)[O-])cc2)cc1 (stereo not given),-6.8*,-0.03*
Nc1nnc(SCC(=O)Nc2cc(C(F)(F)F)ccc2N2CCOCC2)s1,i,1.1
CCn1c(SCC(=O)Nc2ccc3c(c2)OCCO3)nnc1-c1c[nH]c2ccccc12,i,0.91
N#Cc1nc(-c2ccco2)oc1N1CCc2ccccc2C1,i,-1.1
COc1ccc(CCN2C(=O)CSC2c2ccc(OC)c(OC)c2)cc1OC (stereo not given),i,0.43

Some of the compounds tested. The share of hits here may be higher or lower than overall.
